# D2 PAM = human D2 receptor positive allosteric modulation; DiscoveRx D2 beta-arrestin cells, luminescence, 90 min; 100% = 57 uM dopamine signal; potentiation, % (test concentration not listed); hit rate 0.23% among 360,000; active = potentiation of 50% or more; inconclusive = 30% to 50%; inactive = 30% or less;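 further: compound concentration not given in the record; tested on top of an EC20 dose of dopamine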
# Target sequence (P14416 whole entry, looked up): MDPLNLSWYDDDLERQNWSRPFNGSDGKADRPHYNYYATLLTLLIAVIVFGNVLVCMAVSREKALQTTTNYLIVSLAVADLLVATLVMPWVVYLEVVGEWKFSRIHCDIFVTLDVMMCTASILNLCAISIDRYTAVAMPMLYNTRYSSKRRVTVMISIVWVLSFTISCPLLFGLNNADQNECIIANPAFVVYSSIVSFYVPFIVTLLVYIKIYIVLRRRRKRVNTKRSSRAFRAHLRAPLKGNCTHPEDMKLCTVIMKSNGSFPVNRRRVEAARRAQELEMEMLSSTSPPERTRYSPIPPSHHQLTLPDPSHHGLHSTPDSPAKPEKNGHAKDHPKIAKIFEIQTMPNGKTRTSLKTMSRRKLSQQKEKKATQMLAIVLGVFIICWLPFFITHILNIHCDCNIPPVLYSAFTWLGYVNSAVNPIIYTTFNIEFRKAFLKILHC
#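 D2 cells co-treated with compound plus 50 nM dopamine (EC20) for 90 min at 37 deg C to detect potentiation. Beta-arrestin recruitment was read as enzyme-fragment luminescence after 1 h at ambient temperature. Full response was set by 57 uM dopamine.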
# D2 agonist = agonists of human D2 dopamine receptor (beta-arrestin); AID 624465; DiscoveRx PathHunter D2 beta-arrestin, luminescence, 90 min; 100% = 57 uM dopamine signal; P14416; hit rate 0.084% among 360,000; activation, % (test concentration not listed); in the data active = activation above about 40%; inconclusive = about 15% to 40%; inactive = below about 15%; further: compound concentration not given in the record; the text of the record calls up to 30% inactive
#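 Agonist mode: compounds alone added to overnight-plated D2 PathHunter cells for 90 min at 37 C, with 57 uM final dopamine (EC100) defining full response. Beta-arrestin recruitment detected by chemiluminescent reagent, read after 1 h at ambient temperature.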
# Six1-Eya2 inh = blocks human Six1 binding to Eya2; Q15475+O00167; AlphaScreen GST-Six1/His-Eya2 binding, biochemical; active compounds read low; control for the full effect not named in the record; activity change, % (no concentration beside the values); hit rate 0.56% among 360,000; AID 651725; in the data active = activity change below about -65%; inconclusive = about -30% to -65%; inactive = above about -30%; further: on the % scale 0 is the no-effect control and ±100 the full control effect
#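 AlphaScreen luminescence read after one hour at 37 °C in darkness. Pin-transferred compounds met GST-Six1 and His-Eya2 protein (5X stock 250 nM/500 nM) plus glutathione donor and Ni-chelate acceptor beads (5X, 50 ug/mL).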
# TRPML1 agonist = activates the human TRPML1 channel. Q9GZU1. TRPML1-expressing cells, Ca2+ dye fluorescence, FDSS; host cell line not named in the record; reference of the full effect not given here. activation, % (test concentration not listed). hit rate 0.12% among 410,000; in the data active = activation above about 50%; inconclusive = about 30% to 50%; inactive = below about 30%; further: 0% is about no effect; the text of the record puts the active cut at 80%
# Target sequence (Q9GZU1 whole entry, looked up): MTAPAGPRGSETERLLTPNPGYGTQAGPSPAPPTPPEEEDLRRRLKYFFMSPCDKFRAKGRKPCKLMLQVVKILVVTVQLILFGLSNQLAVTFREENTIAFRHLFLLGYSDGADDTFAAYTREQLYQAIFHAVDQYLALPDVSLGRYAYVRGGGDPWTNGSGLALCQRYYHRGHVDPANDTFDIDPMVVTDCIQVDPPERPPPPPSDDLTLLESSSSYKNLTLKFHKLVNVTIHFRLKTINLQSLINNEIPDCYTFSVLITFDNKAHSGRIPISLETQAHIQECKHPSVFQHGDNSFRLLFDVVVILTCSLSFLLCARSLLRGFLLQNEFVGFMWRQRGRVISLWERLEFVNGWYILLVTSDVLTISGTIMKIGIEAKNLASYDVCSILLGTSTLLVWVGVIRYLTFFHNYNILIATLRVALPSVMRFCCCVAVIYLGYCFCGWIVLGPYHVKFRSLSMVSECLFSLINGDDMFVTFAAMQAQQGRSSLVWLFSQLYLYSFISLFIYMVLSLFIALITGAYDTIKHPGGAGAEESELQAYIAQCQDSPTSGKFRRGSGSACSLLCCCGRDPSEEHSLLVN
#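 Agonist activity was taken from a 110 s kinetic Ca2+ dye read on the FDSS after pinning compounds onto TRPML1-DL cells. The cells were seeded at 1,500/well with Tet inducer, incubated about 16 h, then dye-loaded at room temperature.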
# TRPML1 blocker = inhibitors of human TRPML1 channel; hit rate 0.02% among 390,000; TRPML1-inducible cells, Ca2+ dye fluorescence, FDSS; active compounds read low; inhibition of EC80 agonist-evoked calcium signal; activity change, negative = inhibition, % (no concentration beside the values); Q9GZU1; in the data active means activity change below about -50%; inconclusive means about -30% to -50%; inactive means above about -30%;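 further: stimulus is agonist 54-4 at its EC80 concentration; on the % scale 0 is the no-effect control and ±100 the full control effect; compound concentration not given in the record; the text of the record puts the active cut at -80%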
#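 Calcium fluorescence in TRPML1-DL cells induced overnight with Tet: a 110 s read after compound pin addition, then a 110 s antagonist read after challenge with 54-4 at 4 uM final (EC80).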
# PINK1 expr mod = modulators of PINK1 expression | AID 624263 | PINK1 immunofluorescence, high-content cytometry, 24 h | Potency, µM (series often up to 76.6 µM), for the others: at the highest dose activation (PINK1 increase), actives largely listed as activators | hit rate 0.2% among 410,000; active = well fitted activation curve with a large enough effect; inconclusive = small, poorly fitted or top-dose-only effect; inactive = flat fitted curve, though single readings scatter; cell line not stated here;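 further: potency means the concentration at half of the fitted maximal effect; % of control where 0% means no effect; nearly all actives have a fitted effect of over 65% in size; a mitochondrial uncoupler was the plate control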
#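 Stable cell line treated 24 h with compounds at 5 concentrations (CCCP controls), then fixed and immunostained for PINK1 plus nuclear and cell stains; PINK1 immunofluorescence quantified by laser-scanning microplate cytometry.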
# Active calls of the source: *; ? = inconclusive; / = not tested or not shown.
Compound	D2 PAM	D2 agonist	Six1-Eya2 inh	TRPML1 agonist	TRPML1 blocker	PINK1 expr mod
CCc1ccc(CCC(=O)Nc2ccc(Cl)cc2)o1	-5	1.1	4	-1.5	29	2.7%
O/N=C(\c1ccc(Cl)cc1Cl)c1ncc(C(F)(F)F)cc1Cl	19	-1.9	0	0.6	3	0.1%
O=C(c1ccc(CS(=O)c2ccc(Br)cc2)o1)N1CCN(C2CCCCC2)CC1 (stereo unspecified)	-7	-2.1	7	0.1	-2	1.0%
Cc1ccc(NC(=S)NNc2ncc(C(F)(F)F)cc2Cl)cc1	-26	-13	-2	-0.8	-11	32µM*
CCOc1cccc(/C=N/NC(=O)C2CCCC2)c1O	-7	-6.2	-22	0.4	-5	1.3%
Cc1ccc(C(=O)Nc2ccc(F)cc2)cc1S(=O)(=O)N1CCCCCC1	/	/	/	1.4	37	11%
Cc1ccccc1NC(=O)Cn1nc(C(=O)O)c2ccccc2c1=O	-12	-2.9	14	0.3	1	4.0%
CC(=O)Nc1ccc(NC(=O)C(C)OC(=O)c2cccc(S(=O)(=O)N3CCCCCC3)c2)cc1 (stereo unspecified)	-20	3.0	-3	0.3	-7	-0.1%
COc1ccc(CCN(C)CCC(=O)Nc2ccc(C)cc2)cc1OC	-24	-2.7	-4	0.3	3	-1.5%
CCOc1ccc(C(CC(=O)O)NC(=O)C23CC4CC(CC(C4)C2)C3)cc1OC (stereo unspecified)	-5	-1.6	4	-0.1	-9	0.0%
O=C(Nc1cccc(Cl)c1Cl)c1cc2nc(-c3ccc(Cl)cc3)cc(C(F)(F)F)n2n1	/	/	/	-0.7	20	3.9%
CC1CCCC(C)N1C(=O)COC(=O)C1CCN(S(=O)(=O)c2c(Cl)cccc2Cl)CC1 (stereo unspecified)	13	-5.1	-6	0.8	1	3.1%
CC1CCCCC1NC(=O)c1ccc(S(=O)(=O)N2CCN(C)CC2)cc1 (stereo unspecified)	-4	-4.9	1	-0.2	11	0.5%
CC(C)CC(c1nnnn1CC1CCCO1)N1CCN(c2nc3ccccc3s2)CC1 (stereo unspecified)	3	0.3	-2	-0.7	1	0.5%
O=C(NC1CC1)c1cccc(S(=O)(=O)N2CCOCC2)c1	-2	-2.8	18	-0.3	2	-1.0%
O=C(CN1C(=O)NC2(CCCC2)C1=O)Nc1ccccc1N1CCCC1	3	6.0	2	0.3	8	-1.2%
CC(NC(=O)CSc1nc(-c2cccc(Cl)c2)nc2cc(=O)[nH]n12)c1nc2ccccc2n1C (stereo unspecified)	/	/	/	0.2	-30	0.0%
Nc1nc(NCc2ccco2)nn1-c1ccccc1	3	-0.9	21	-0.3	-1	-1.7%
O=C(C=CC=Cc1ccccc1)c1ccc([N+](=O)[O-])cc1	-1	-3.1	15	-0.3	-3	?
CS(=O)(=O)Nc1ccc(C(=O)Nc2ccccc2Sc2ccccc2)cc1	5	-2.4	1	-0.5	0	-2.6%
CCCC(=O)Nc1nnc([C@H]2C[C@H](O)[C@@H](CO)O2)s1	-3	3.0	7	0.2	/	0.1%
Cc1noc(C)c1CN1C(=O)c2cccc([N+](=O)[O-])c2C1=O	21	3.6	5	0.4	-11	1.0%
COC(=O)c1sc(NC(=O)CSc2nc3cccnc3n2C)nc1C	-9	-2.7	12	0.1	-8	1.3%
Cn1c(N)c(C(=O)Nc2cccc(Cl)c2)c(=O)n(C)c1=O	-3	-1.7	-12	-0.2	4	2.7%

# Quoted at random: 2 records from the list
Compound	D2 PAM	D2 agonist	Six1-Eya2 inh	TRPML1 agonist	TRPML1 blocker	PINK1 expr mod
O=C(NC1CC1)c1cccc(S(=O)(=O)N2CCOCC2)c1	-2	-2.8	18	-0.3	2	-1.0%
CC1CCCCC1NC(=O)c1ccc(S(=O)(=O)N2CCN(C)CC2)cc1 (stereo unspecified)	-4	-4.9	1	-0.2	11	0.5%

# Next part:
Compound	D2 PAM	D2 agonist	Six1-Eya2 inh	TRPML1 agonist	TRPML1 blocker	PINK1 expr mod
Cc1cnc(C)c(N2CCN(Cc3nc(-c4ccccc4)no3)CC2)n1	-5	-3.4	-1	1.0	-12	0.2%
CC1CCN(CCCCOc2ccc(C(=O)c3ccccc3)cc2)CC1	-15	-3.1	2	0.0	3	-0.7%
COCc1c(Br)c(C)nc(OCC(=O)N/N=C/c2cc(C)n(-c3ccc([N+](=O)[O-])cc3)c2C)c1C#N	-3	0.5	-4	3.2	-8	-1.7%
COc1ccc(NC(=O)OC(CN2CCCCC2)C(F)(F)F)cc1 (stereo unspecified)	-13	0.1	14	1.2	3	0.9%
CN1CCC(OC(=O)c2ccco2)CC1	-16	-3.5	5	-0.2	15	0.6%
C/C(=N/NC(=O)c1ccncc1)c1ccc2c(c1)OCO2	-11	-3.6	0	0.7	45	4.7%
COc1cc(C)nc(NC(=O)COc2ccc(Cl)cc2C)n1	-17	-1.7	6	-0.7	-8	2.9%
O=C1ON=C(c2ccccc2)/C1=C/c1ccccc1	-15	2.8	15	-0.7	5	4.6%
CC1(C)C2CCC1(CS(=O)(=O)Nc1ccc(S(=O)(=O)N3CCCCC3)cc1)C(=O)C2 (stereo unspecified)	-16	-7.6	1	1.3	10	4.9%
CCCCCC(=O)Oc1cccc(N2C(=O)C3CCCCC3C2=O)c1 (stereo unspecified)	-6	8.5	-15	1.7	-3	-0.8%
COC(=O)[C@]1(C)CCC[C@@]2(C)C3CC[C@@]4(C)C[C@]3(CCC21)CC(=O)N4 (stereo partly specified)	-5	-3.1	-1	0.4	-4	1.1%
CCNC(=O)Nc1cc(OC)c(OC)cc1C(=O)O	-2	-8.9	-9	/	/	3.1%

# Individual results from above:
# `CC1CCN(CCCCOc2ccc(C(=O)c3ccccc3)cc2)CC1` in D2 PAM shows -15
# `CS(=O)(=O)Nc1ccc(C(=O)Nc2ccccc2Sc2ccccc2)cc1` in D2 agonist shows -2.4
# `Cc1ccccc1NC(=O)Cn1nc(C(=O)O)c2ccccc2c1=O` in PINK1 expr mod shows 4.0%
# `CC(C)CC(c1nnnn1CC1CCCO1)N1CCN(c2nc3ccccc3s2)CC1` (stereo unspecified) in TRPML1 agonist shows -0.7
# `Cc1cnc(C)c(N2CCN(Cc3nc(-c4ccccc4)no3)CC2)n1` in D2 agonist shows -3.4
# `CCNC(=O)Nc1cc(OC)c(OC)cc1C(=O)O` in Six1-Eya2 inh shows -9

# The list goes on.
Compound	D2 PAM	D2 agonist	Six1-Eya2 inh	TRPML1 agonist	TRPML1 blocker	PINK1 expr mod
O=S(=O)(c1ccc2nc(-c3ccco3)c(-c3ccco3)nc2c1)N1CCOCC1	56*	3.6	?	-0.6	-3	2.1%
CC1CN(Cc2nc3c(c(=O)n(C)c(=O)n3C)n2Cc2cccc(Cl)c2)CC(C)O1 (stereo unspecified)	-13	-4.2	-2	0.1	28	7.5%
O=C(NCCN1CCOCC1)/C(=C/c1ccccc1)NC(=O)c1ccccc1	-16	-6.8	2	-1.1	54	1.5%
CCCCCCn1c(=O)n2n(c1=O)[C@@H]1CN(S(=O)(=O)c3ccc(C)cc3)C[C@]1(O)[C@@H](OC(=O)NC1CCCC1)C2	5	-9.2	0	-0.5	13	2.8%
CCC(=O)Nc1ccc(NC(=O)c2ccc3ccccc3c2)cc1	-5	2.0	-2	-1.3	8	5.0%
COC(=O)C1=CNC=C(C(=O)OC)C1c1ccc(C(=O)OC)cc1	-5	-2.7	9	17	15	0.6%
COc1ccc(Cn2cc([N+](=O)[O-])nc2C)cc1[N+](=O)[O-]	-2	-11	-1	-0.7	5	2.3%
COc1ccc(CCNC(=O)c2ccc3nc4cc(Cl)ccc4c(=O)n3c2)cc1OC	-5	-1.3	-20	1.0	8	6.0%
COc1ccc(-c2nnc(NC(=O)c3ccc([N+](=O)[O-])o3)o2)c(OC)c1	26	4.0	-8	-0.5	14	3.8%
CC(=O)OCC(=O)NCCCOc1cccc(CN2CCCCC2)c1	0	-1.8	0	-0.5	-4	0.5%
CCS(=O)(=O)C1=NN2C(=N)/C(=C\c3ccc(OC(=O)c4ccco4)c(OC)c3)C(=O)N=C2S1	-26	-5.2	-8	0.0	-7	0.2%
O=C(N/C(=C/c1cccs1)C(=O)N1CCOCC1)c1cccs1	12	6.9	7	0.2	-12	-1.4%
CCOc1ccc(N=C2Sc3nc4ccc(C)cc4cc3CN2CCOC)cc1	-17	1.9	-8	2.5	0	2.3%
CCOC(=O)c1cccc(OS(=O)(=O)Cc2ccccc2)c1	-5	-4.0	18	2.5	-18	-0.8%
Cc1cc(=O)[nH]c(SCC(=O)c2c(N)n(C)c(=O)n(C)c2=O)n1	4	-2.2	-8	1.5	23	0.0%
CN1CCN(C(CNC(=O)C(=O)Nc2ccccc2)c2ccc3c(c2)OCO3)CC1 (stereo unspecified)	/	/	/	-0.5	-19	0.3%
N#C/C(=C\c1ccc(OCCN2CCOCC2)cc1)C(=O)Nc1ccc(S(N)(=O)=O)cc1	-30	-3.5	2	0.3	19	0.7%
CCCCn1c(N)c(N(CC(C)C)C(=O)c2cnc(C)cn2)c(=O)[nH]c1=O	-7	1.6	3	-0.7	11	2.0%
CCn1nc(CC(=O)O)c2ccccc2c1=O	-1	1.5	5	0.4	-4	1.1%
CCCC#Cc1cnc2c(c1)C(=O)N([C@H](C)CO)C[C@H](C)[C@@H](CN(C)C(=O)CCN1CCCCC1)O2	-10	-3.5	8	0.9	-7	2.9%
CN(Cc1ccccc1)C(=O)c1nc2ccccn2c1CN1CCc2sccc2C1	-11	-3.3	-13	2.1	21	1.8%
Cc1cc(NS(=O)(=O)c2ccc(Nc3nc(-c4sc(N)nc4C)cs3)cc2)no1	22	0.0	-91*	0.3	-20	-2.4%
Cc1cc2cc(CNC(=S)Nc3ccc(OC(F)(F)F)cc3)ccc2n1C	-3	-3.9	-14	0.5	7	9.1%
NC(Cc1ccc(F)cc1)c1csc(Nc2cc(NCc3ccco3)ncn2)n1 (stereo unspecified)	-9	-1.5	?	0.3	/	2.8%
Cc1cc(SCC(=O)NC(=O)NCc2ccco2)nc2ccccc12	-17	-4.3	-13	1.7	-15	-2.5%
CC(CCc1ccccc1)NC(=O)CCNC(=O)c1ccccc1Cl (stereo unspecified)	-4	-0.6	0	-0.2	15	1.3%
CC(C)C1C(C#N)=C(N)SC(N)=C1C#N	-25	-3.0	-2	0.6	-9	/
O=C(NCCS(=O)c1ccc(Cl)cc1)c1cccc(Cl)c1 (stereo unspecified)	-10	-2.4	14	0.0	1	1.1%
O=C(Cn1nnc(-c2cccs2)n1)NCCc1ccccc1	-13	-3.0	7	-1.0	8	0.8%
Nc1nc2c3ccccc3nc(C3CC3)n2n1	-15	-5.2	-4	0.6	14	-1.4%

# Marked active in Six1-Eya2 inh, of those listed so far:
SMILES	D2 PAM	D2 agonist	Six1-Eya2 inh	TRPML1 blocker	PINK1 expr mod
Cc1cc(NS(=O)(=O)c2ccc(Nc3nc(-c4sc(N)nc4C)cs3)cc2)no1	22	0.0	-91*	-20	-2.4%
